YopH inh: YopH tyrosine phosphatase inhibitors, primary screen, biochemical, fluorescence Ex485/Em525. hit rate 0.16% among 140,000. AID 898, 2007. inhibition, %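 (about 10 µM by stock and volumes)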. YopH tyrosine phosphatase [Yersinia enterocolitica];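 active means inhibition of 50% or more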;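 further: controls were vehicle for no effect and minimum signal wells for full effect; inactives centre near -20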
Mtb growth: M. tuberculosis H37Rv growth inhibitors, H37Rv strain (AID 1626) | M. tuberculosis H37Rv growth inhibition; higher % means a stronger effect | one-dose inhibition, % at 10 µM; IC50 in µM for titrated hits | hit rate 0.95% among 220,000;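 active means confirmed in a dose series; inconclusive means inhibition above 80% but not taken into the dose series; inactive means below 80% or under 30% at every dose of the series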;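 further: bacteria incubated seven days before Alamar blue readout; 0% = bacteria only wells and 100% = bacteria with antibiotic wells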
RecA splice inh: Mtb RecA intein splicing inhibitors, primary screen, biochemical, fluorescence, HTS | hit rate 0.75% among 290,000 | inhibition, %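 (about 9 µM by stock and volumes)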 | Protein RecA (Mycobacterium tuberculosis (strain ATCC 25618 / H37Rv)), P9WHJ3 | cell-free RecA intein splicing; in the data active means inhibition above about 30%; inconclusive means no clear call, values can overlap the other calls;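 further: 0% = vehicle wells and 100% = reference inhibitor control wells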
Target sequence (P9WHJ3 whole entry, looked up, canonical isoform): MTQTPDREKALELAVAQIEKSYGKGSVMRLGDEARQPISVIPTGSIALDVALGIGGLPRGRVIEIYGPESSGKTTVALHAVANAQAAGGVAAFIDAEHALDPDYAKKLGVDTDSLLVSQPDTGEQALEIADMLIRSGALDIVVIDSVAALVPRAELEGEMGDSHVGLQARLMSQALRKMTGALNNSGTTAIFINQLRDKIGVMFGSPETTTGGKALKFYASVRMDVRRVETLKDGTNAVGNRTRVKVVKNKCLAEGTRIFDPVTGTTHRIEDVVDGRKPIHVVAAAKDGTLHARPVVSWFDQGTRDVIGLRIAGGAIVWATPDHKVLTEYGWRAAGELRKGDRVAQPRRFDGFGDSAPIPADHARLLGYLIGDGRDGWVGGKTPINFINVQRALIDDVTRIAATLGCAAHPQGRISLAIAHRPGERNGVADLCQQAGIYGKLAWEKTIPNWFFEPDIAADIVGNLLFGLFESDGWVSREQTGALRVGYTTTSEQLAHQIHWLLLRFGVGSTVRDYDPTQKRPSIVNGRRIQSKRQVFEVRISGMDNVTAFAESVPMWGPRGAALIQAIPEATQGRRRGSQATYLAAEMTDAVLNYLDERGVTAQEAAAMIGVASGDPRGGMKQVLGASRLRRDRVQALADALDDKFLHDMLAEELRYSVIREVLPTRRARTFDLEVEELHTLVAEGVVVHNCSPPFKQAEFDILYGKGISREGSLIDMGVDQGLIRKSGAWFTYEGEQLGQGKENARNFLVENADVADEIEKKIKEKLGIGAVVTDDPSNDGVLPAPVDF
Arbovirus anti: antivirals against arbovirus infection, primary screen, cell-based, full library, 10K replicate subset; arbovirus infection cell-based antiviral screen; inhibition, % at 10 µM; hit rate 0.37% among 200,000; AID 1251, 2008;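 active means inhibition from about 30%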;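 further: bluetongue infection of BSR cells; cell survival read as ATP light after 72 h; 0% = infected wells without compound and 100% = uninfected wells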
Mtb bLac sens: beta-lactam sensitization of Mtb H37Rv, H37Rv; M. tuberculosis H37Rv growth with meropenem, percent inhibition; hits of this screen are not shown here; inhibition, % at 25 µM; hit rate 0.27% among 330,000; AID 434955, 2010;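 active means about 74% or more and at least 40 points above the plate without the antibiotic, then above 30% in a dose series; inconclusive means first-round hits that could not be retested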;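 further: growth measured after seven days incubation then overnight dye step; 0% = bacteria only wells and 100% = bacteria with antibiotic; twin plates without the antibiotic show which effects depend on it; some results filed as inactive read as strong as hits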
Arbovirus anti repeat: recorded beside Arbovirus anti, whose call it bears; inhibition, %; measured here: 10K subset replicate screen; many hits read low in the repeat;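 first of two repeat runs on a subset; 0% = infected and 100% = uninfected wells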
* marks the source's active call; other numbers are inactive results; ? = inconclusive; nt = not tested or not shown.

SMILES	YopH inh	Mtb growth	RecA splice inh	Arbovirus anti	Mtb bLac sens	others
COc1ccc(S(=O)(=O)N2CCCCCC2)cc1C(=O)N(C)Cc1cccc(OC)c1OC	nt	nt	2.9	nt	-5
O=C(CNc1cccc(S(=O)(=O)N2CCCC2)c1)Nc1ccc(F)cc1F	nt	nt	8.8	nt	-4
CCC(=O)NC1OC(CO)C(O)C(O)C1O (stereo not given)	nt	-13%	0.3	9	0
Cc1ccc(C2=Nc3ccc(Br)cc3C(c3ccncc3)=NN2)cc1	nt	-3%	2.5	9	74
O=C(Nc1cccc(S(=O)(=O)N2CCCC2)c1)c1ccc2c(=O)n3c(nc2c1)CCCCC3	-43	8%	-1.4	-13	5
CN1CCN(c2nc3c(c(=O)[nH]c(=O)n3C)n2CCCSc2nnnn2-c2ccccc2)CC1	nt	-1%	3.0	7	-2
COc1cc(C2C(C#N)=C(N)Oc3c2ccc2ccccc32)ccc1OCC(=O)Nc1ccccc1C (stereo not given)	12	14%	3.6	-8	-7
O=C(Nc1ccc2snnc2c1)N1CCOCC1	-32	1%	0.3	3	-5
CC1(C)Cc2nc3sc4c(=O)n(CC(N)=O)cnc4c3cc2CO1	-26	nt	-0.9	4	0
C/C(=N\N1CCCCCC1)c1c(O)n(-c2ccccc2C)c(=O)[nH]c1=O	nt	6%	nt	nt	-4
COc1ccccc1C(=O)NC(CCSC)C(=O)NCc1ccccn1 (stereo not given)	nt	nt	1.3	nt	-9
CCC(Oc1ccccc1)C(=O)Nc1ccc(-c2nnc(-c3ccco3)o2)cc1 (stereo not given)	-18	-1%	nt	-15	77

Of the compounds above, these have an NH in an aromatic ring:
SMILES	YopH inh	Mtb growth	RecA splice inh	Arbovirus anti	Mtb bLac sens	others
CN1CCN(c2nc3c(c(=O)[nH]c(=O)n3C)n2CCCSc2nnnn2-c2ccccc2)CC1	nt	-1%	3.0	7	-2
C/C(=N\N1CCCCCC1)c1c(O)n(-c2ccccc2C)c(=O)[nH]c1=O	nt	6%	nt	nt	-4

The listing continues:
SMILES	YopH inh	Mtb growth	RecA splice inh	Arbovirus anti	Mtb bLac sens	others
CC(C)(CO)N1CCN(C(=S)Nc2ccccc2)CC1	nt	nt	-0.4	nt	9
Cc1cc(C(=O)CCC(=O)NNC(=O)c2ccccc2O)c(C)s1	nt	nt	3.2	nt	-5
Cc1cc(/C=C(\C#N)C(=O)Nc2ccccc2)c(C)n1-c1cccnc1	-25	4%	3.0	3	-6
Cn1c(N)c(S(=O)(=O)N2CCN(c3ccccc3F)CC2)c(=O)n(C)c1=O	nt	nt	-1.7	nt	1
CSc1ccccc1OCc1cc(C(=O)N2CCC(Oc3cccnc3)CC2)no1	nt	nt	1.4	nt	?
COc1ccc(S(=O)(=O)N2CCc3ccccc32)cc1C(=O)Nc1cccnc1	nt	-1%	-1.1	nt	-12
COc1ccc2c(=O)c3ccccc3oc2c1	nt	nt	0.4	nt	-2
COc1ccccc1CNS(=O)(=O)c1c(C)[nH]c(=O)[nH]c1=O	-31	-4%	-0.3	3	7
O=C(CN1CCN(c2ccccc2O)CC1)Nc1ccc([N+](=O)[O-])cc1Br	nt	6%	-1.2	-6	4
O=C(O)Cn1cc(/C=c2/sc3nc4ccccc4n3c2=O)c2ccccc21	nt	5%	0.6	6	0
NC(=O)NC(=O)CSc1nc(-c2ccccc2)c(-c2ccccc2)n1CC1CCCO1 (stereo not given)	-32	10%	5.0	-11	4
Cc1cccc(C(=O)N/C(=C/c2ccco2)C(=O)N2CCCCCC2)c1	nt	nt	2.7	nt	-5
Cc1nnc(SCC(=O)Nc2ccccc2)n(N)c1=O	nt	-6%	-5.1	17	-9
O=C(c1nc2ncccn2n1)N1CCc2ccccc2C1	15	-1%	3.9	11	-6
CCOc1ccc(C(=O)N(CN2CCCC2=O)c2cccc(Cl)c2)cc1	nt	5%	1.6	13	0
CN(C)C(=O)c1ccc(NC(=O)CN2CCc3cc4c(cc3C2)OCCCO4)cc1	nt	nt	-0.1	nt	-3
CCCN(CCC)C(=O)CCS(=O)(=O)c1cccc2nsnc12	-10	10%	0.5	2	4	Arbovirus anti repeat=-3
CSc1nc(SCC(=O)NCc2ccco2)c2c3c(sc2n1)CN(C)CC3	-24	-4%	1.2	0	?
Cc1nc2ccccc2n1CCN1CCOCC1	nt	1%	-0.3	6	-4
CC(C)Cc1nnc(NC(=O)CCC(=O)N2CCN(c3ccc([N+](=O)[O-])cc3)CC2)s1	nt	nt	-0.5	nt	11
CCCCn1nnnc1SCC(=O)N1CCCC1	-7	-3%	-0.1	1	2
CC1CC(C)CN(c2ccc(NS(=O)(=O)c3ccccc3)cc2C(=O)O)C1 (stereo not given)	nt	nt	1.0	nt	-4
COc1cc2[nH]c(=S)nc(NCc3cccc(Cl)c3)c2cc1OC	nt	nt	1.9	nt	-9
Cc1ccc2nc(-c3ccccc3C)oc(=O)c2c1	nt	nt	2.7	nt	12
COC(=O)c1c(NC(=O)c2cccc(S(=O)(=O)N3CCN(C)CC3)c2)sc(C)c1C	nt	nt	-1.6	nt	0
CC(C)CCn1c(=O)c2ccccc2n2c(CN3CCOCC3)nnc12	nt	2%	-2.2	2	-3
COc1ccc(/C=C2\SC(=O)N(CC(=O)Nc3cccnc3)C2=O)cc1OC	nt	-9%	2.3	9	-1
Cc1ccc(OCCN(C)C(=O)c2cc(COc3ccc(F)cc3F)on2)cc1	nt	nt	4.0	nt	?
CC(=O)NC1C(c2nc3ccccc3s2)=C(c2ccccc2)C(=O)N1c1ccc(C)cc1 (stereo not given)	0	-1%	-0.8	7	99
Cc1ccc(S(=O)(=O)NCCCCCC(=O)N(C)C)cc1	-35	-2%	-0.4	1	3
CC(=O)c1ccc([C@@H]2C[C@]34CN(Cc5cccc(C(F)(F)F)c5)S(=O)(=O)[C@H]3C[C@H]2O4)cc1	nt	-7%	1.2	nt	-10
S=c1nc(-c2ccccc2Cl)[nH][nH]1	nt	-6%	-2.3	-5	-7
Cc1ccc(NC(=O)c2onc(C)c2Cl)cc1	15	2%	1.4	-5	5
CCN(CC)C(=S)Nc1ccc([N+](=O)[O-])cc1	-12	-5%	1.2	1	1
Cc1ccc(NC(=O)CCNS(=O)(=O)c2ccc3c(c2)oc(=O)n3C)cc1	-38	-2%	-1.1	-3	-14
O=C(CSc1nc2cc(Cl)ccc2s1)c1cc2ccccc2o1	-27	nt	4.1	3	74
Cc1cc(C)nc(NC(=O)CSc2nn(C)c(=S)s2)n1	-2	-17%	-1.3	3	-3
Cc1ccc(C(=O)N2CCOCC2)cc1S(=O)(=O)N1CCOCC1	nt	nt	1.3	nt	?
Cc1ccccc1OS(=O)(=O)c1cn(C)c(=O)n(C)c1=O	nt	5%	-2.4	2	-1
CC(=O)Nc1ccc(N/C=C/C(=O)C(C)(C)C)cc1	-27	2%	1.7	11	8
COC(=O)c1ccccc1NC(=O)COc1ccc(S(=O)(=O)NC(C)C)cc1	nt	-6%	-0.8	-2	-3
Cc1nc(NCc2ccc3c(c2)OCO3)c2oc3ccccc3c2n1	30	7.7µM*	-1.1	3	31	Arbovirus anti repeat=9
CN(Cc1ccccc1NS(=O)(=O)c1ccc2ccccc2c1)C1CCCCC1	nt	0%	2.7	-1	-10
Cc1cccc(N2CCN(c3nc(C)cc(C)c3C#N)CC2C)c1 (stereo not given)	nt	nt	-2.5	nt	5
CCOC(=O)[C@@H]1[C@H]2COc3ccccc3[C@@H]2N2C(=O)N(c3ccc(OC)cc3)C(=O)[C@]12C	nt	-4%	-1.6	nt	-4
COc1ccc(CC(=O)N(CC2CCCO2)c2nc3ccccc3s2)cc1 (stereo not given)	-15	-2%	0.3	4	5
CN(C)CCN(C(=O)C1CCN(S(=O)(=O)c2cccs2)CC1)c1nc2c(F)cccc2s1	nt	nt	1.1	nt	-4
C/C(N)=C(/C#N)C(=O)COC(=O)c1cccc(C)c1O	nt	-7%	-0.3	nt	1

Grouped by structure, the compounds so far with bromine
SMILES	YopH inh	Mtb growth	RecA splice inh	Arbovirus anti	Mtb bLac sens	others
Cc1ccc(C2=Nc3ccc(Br)cc3C(c3ccncc3)=NN2)cc1	nt	-3%	2.5	9	74
O=C(CN1CCN(c2ccccc2O)CC1)Nc1ccc([N+](=O)[O-])cc1Br	nt	6%	-1.2	-6	4

The results go on:
SMILES	YopH inh	Mtb growth	RecA splice inh	Arbovirus anti	Mtb bLac sens	others
CCOC(=O)c1sc(NC(=O)c2ccc(C)o2)nc1C	-56	3%	-0.2	-14	-7
CCN(CC)S(=O)(=O)c1ccc(/C=C/C(=O)OCC(=O)Nc2cccc3ccccc23)cc1	-29	58%	-0.5	9	80
N#Cc1ccccc1COC(=O)CCCC1=NS(=O)(=O)c2ccccc2N1	nt	nt	-1.4	nt	-2
CCN1C(=O)[C@@H]2[C@H](C1=O)[C@@H]1C(=O)Nc3ccccc3C(=O)N1[C@@H]2c1cccc(OC)c1	nt	nt	-2.0	nt	-5
Cc1c(NC(=O)CCSCCc2ccccn2)cccc1[N+](=O)[O-]	nt	3%	0.0	1	-5
Cc1cc(/C=C2/C(=O)NN(c3ccccc3)C2=O)c(C)n1-c1cccc(O)c1	-19	35%	-2.4	-8	-2
CCCCCCNC(=O)CSc1nccn1Cc1ccccc1	-15	-7%	-9.3	-8	-5
CCNC(=O)CCc1nc(-c2ccc(C(C)(C)C)cc2)no1	-36	-2%	0.0	-1	23
COc1cccc(CNC(=O)CCC2CCCN(Cc3cc(Cl)ccc3O)C2)c1 (stereo not given)	nt	-2%	-1.4	11	-6
Brc1ccccc1-c1nnc(CSc2nnnn2-c2ccccc2)o1	-43	11%	7.0	7	-8
Cc1noc(C)c1COc1ccccc1C(=O)Nc1cccc(S(=O)(=O)N(C)C)c1	nt	nt	-0.9	nt	-4
C1=C(N2CCOCC2)/C(=C/c2nc3ccccc3[nH]2)CC1	nt	-2%	-6.2	2	0	Arbovirus anti repeat=10
CC1(C)Cc2c(cnn2-c2ccc(F)cc2)C(NC(=O)CCC(F)(F)F)C1 (stereo not given)	nt	nt	1.0	nt	-1
CCOC(=O)N1CCC(NC(=O)c2cc(C(=O)Nc3cccc(OC)c3)ccc2CO)CC1	-39	3%	-3.5	1	1
CN(C(=O)CCNC(=O)Cn1ccc2ccccc2c1=O)c1ccc(Br)cc1	nt	nt	1.9	nt	3
O=C(NCCN1CCOCC1)c1cc(-c2cccs2)nc2ccccc12	nt	nt	12	nt	-2
C/C(=N\NC(=O)c1ccc(N/N=C(\C)c2ccc(O)cc2)cc1)c1ccc(O)cc1	nt	19%	-0.8	nt	13
C/C(=C\c1ccccc1)CN(C)CCN(C)C	-53	-13%	nt	-3	nt
O=C(COC(=O)c1cccnc1Cl)NCC1CCCO1 (stereo not given)	nt	0%	2.0	2	-8
COc1cccc(CN2CC(C(=O)NC3(c4ccccc4)CC3)CCC2=O)c1 (stereo not given)	nt	nt	-3.4	nt	-15
O=S(=O)(Nc1cccc(-c2cn3cccnc3n2)c1)c1ccc(-c2ccccc2)cc1	-33	nt	17	-10	-4
CCN1CCN(C(=O)CCc2nc3ccccc3c(=O)[nH]2)CC1	-47	-7%	0.0	2	-7
O=C(O)c1cnn2c1NC(c1ccc(F)cc1)CC2C(F)(F)F (stereo not given)	-15	0%	-4.7	2	-3
Cc1ccccc1C(=O)NC1CC2CCCC(C1)N2Cc1ccc(Cl)cc1 (stereo not given)	nt	nt	-0.5	nt	-4
COc1ccc(CN2CCN(CC(O)Cn3c4ccccc4c4ccccc43)CC2)cc1 (stereo not given)	-9	5.3µM*	2.1	-35	99
C=CCn1c(O)c(/C(C)=N/N2CCN(C)CC2)c(=O)[nH]c1=O	nt	-7%	0.0	nt	6
COc1ccc(C2=NOC(C(=O)NC(C)(C)C)C2)cc1 (stereo not given)	-27	-1%	-0.2	8	5
COc1ccc(C(=O)Nn2cnnc2)c(OC)c1	1	2%	0.2	1	3
Cn1nccc1C(=O)Nn1cnnc1	-37	0%	0.4	4	-11
Nc1nc(-c2ccccc2)c(-c2ccccc2)n1N	nt	nt	-6.0	nt	0
CCn1c(SCC(=O)Nc2ccc(OCc3ccccc3)cc2)nnc1-c1ccco1	nt	56%	0.8	nt	30
Cc1cc(NC(=O)CSc2ccc3nnc(-c4ccccc4)n3n2)no1	-19	-8%	-1.6	3	-4
Cc1[nH]c2ccccc2c1C(=O)CN1CCC2(CC1)OCCO2	-23	-3%	-4.1	-1	-1
Cc1cc(NC(=O)Nc2ccc(Cl)cc2)n(C(C)(C)C)n1	nt	nt	4.7	nt	-7

Assay outcomes (PubChem)

The list is partial, so the mix of outcomes need not match the whole.
